PrP UTR inh = inhibition of PrP 5' UTR reporter expression | cell-based PrP 5' UTR mRNA reporter, plate reader | inhibition, % (test concentration not listed) | hit rate 0.35% among 340,000 | AID 488862;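 active means every replicate at 50% or more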;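 further: 0 = median of the neutral control wells; tested in H4 reporter cells; numbers are from one replicate; inactives centre near -14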
Bead autofluor = counter-screen for toxin protease inhibitors: compound fluorescence. fluorescence intensity (no concentration beside the values). hit rate 3.1% among 360,000. AID 624483. compound autofluorescence counterscreen, microsphere flow cytometry; active compounds read high;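 active means at least 3 SD above the mean of all compounds, about 16000 in these data; inconclusive means too few beads counted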;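 further: 100 nL of 1 mM stock went into each well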
Sa RN4220 lethal = kills Staphylococcus aureus RN4220. inhibition, % (concentration not given with the values). hit rate 0.33% among 330,000. S. aureus RN4220 growth, OD600, 16 h;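 active means z-score of -3 or lower and OD600 up to 0.18 on both plates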;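 further: plate controls were untreated cells for no effect and reference antibiotic for full effect; stock transfer was 100 nL into about 80 µL; one replicate is shown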
BJeLR lethal = kills HRASV12-expressing BJeLR cells. BJeLR (HRASV12) viability, CellTiter-Glo ATP luminescence, 48 h; reference of the scale not given here. inhibition, % (test concentration not listed). hit rate 0.17% among 300,000. AID 1554;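 active means replicate mean above 50%; inconclusive means above 50% but judged a plate artefact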;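 further: 50 nL library stock added to about 25 µL; numbers are from one replicate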
Sa ugtP lethal = growth inhibition of S. aureus ugtP deletion strain; S. aureus RN4220 ugtP deletion, OD600 growth, 16 h; some inactives read as strong as hits; growth inhibition, % (concentration not given with the values); hit rate 0.54% among 330,000;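 active means z-score under -3 and OD600 up to 0.15 on both plates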;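 further: plate controls were untreated wells for no effect and antibiotic for full effect; wells of about 80 µL received 100 nL stock; the first replicate is given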
Mtb hypoxia rep = inhibitors of hypoxia-regulated fluorescent reporter in Mycobacterium tuberculosis; fluorescence inhibition, % (concentration not given with the values); AID 1159583; M. tuberculosis hypoxia-regulated fluorescent reporter, fluorescence; hit rate 0.1% among 300,000;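 active means 35 to 45% if threefold the growth effect, above 45% if 1.5-fold the growth effect; inactive means the rest, general growth blockers included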;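 further: wells of about 50 µL received 100 nL stock; 0% = vehicle wells and 100% = reference inhibitor wells; whole bacteria with a GFP reporter of the hypoxia response; strong numbers were not always called active; many hits fall short of the cut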
Mtb hypoxia rep growth = recorded beside Mtb hypoxia rep, whose call it bears; growth inhibition, %; measured here: M. tuberculosis growth (absorbance);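 0% = vehicle and 100% = reference antibiotic; read after six days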
Numbers without * were called inactive; u = inconclusive; x = not tested or not shown. Compounds were not picked by outcome. About 4% of those tested had a hit in this group.

A first look:
SMILES	PrP UTR inh	Bead autofluor	Sa RN4220 lethal	BJeLR lethal	Sa ugtP lethal	Mtb hypoxia rep	Mtb hypoxia rep growth
Cc1cccc(NC(=O)c2nnn(-c3cccc(C(F)(F)F)c3)c2N)c1	-11	4536	2.8	-6	-72	6	9
C=CCSc1nc2c(c(=O)[nH]c(=O)n2C)n1CC	-19	4717	-0.2	-1	1	x	x
COc1cc(-n2c(C)nc3cc(C(=O)N4CCOCC4)ccc32)cc(OC)c1OC	-6	2784	-0.9	-5	1	x	x
CCCNC(=O)CS(=O)Cc1nc(-c2cccc(OC)c2)oc1C (stereo not given)	-21	6411	3.3	7	5	5	0

All compounds of this part, previewed entries included:
SMILES	PrP UTR inh	Bead autofluor	Sa RN4220 lethal	BJeLR lethal	Sa ugtP lethal	Mtb hypoxia rep	Mtb hypoxia rep growth
Cc1cccc(NC(=O)c2nnn(-c3cccc(C(F)(F)F)c3)c2N)c1	-11	4536	2.8	-6	-72	6	9
C=CCSc1nc2c(c(=O)[nH]c(=O)n2C)n1CC	-19	4717	-0.2	-1	1	x	x
COc1cc(-n2c(C)nc3cc(C(=O)N4CCOCC4)ccc32)cc(OC)c1OC	-6	2784	-0.9	-5	1	x	x
CCCNC(=O)CS(=O)Cc1nc(-c2cccc(OC)c2)oc1C (stereo not given)	-21	6411	3.3	7	5	5	0
COc1ccc(CCN(C)c2ccc(C(N)=O)cc2[N+](=O)[O-])cc1OC	4	4290	3.7	-17	5	14	4
Cn1cc([N+](=O)[O-])c(C(=O)Nc2cc(Oc3ccccc3)cc([N+](=O)[O-])c2)n1	-27	2207	-5.3	-18	45	7	5
Cc1ccccc1-n1c(-c2ccoc2C)n[nH]c1=S	-5	2074	3.3	-8	13	6	9
Cc1c(NC(=O)c2ccc(C(=O)Nc3c(C)n(C)n(-c4ccccc4)c3=O)cc2)c(=O)n(-c2ccccc2)n1C	-4	x	2.7	-7	7	-1	-7
Cc1ccc(C(=O)Nc2ccc(C(=O)N/N=C/c3cccnc3)cc2)cc1	-6	3020	x	4	x	x	x
COc1ccc(CC2(CCc3ccncc3)C(=O)NC(=O)NC2=O)cc1	-20	3651	5.2	1	1	8	6
OCCC1CN(Cc2ccccc2-c2ccco2)CCN1C1CCCC1 (stereo not given)	-28	4951	1.3	0	-8	5	-7
O=C(Cc1ccccc1)N/N=C/c1ccc(OCC(=O)Nc2ccccc2)cc1	-26	3727	x	-1	x	x	x
O=C(Cn1cc([N+](=O)[O-])cn1)N1CCN(Cc2ccc3c(c2)OCO3)CC1	-1	5651	0.6	-6	1	-5	6
Cn1c(Cn2cnc([N+](=O)[O-])n2)nnc1SCC(=O)Nc1cccc(Cl)c1	-25	9998	-4.5	10	20	x	x
CC(=O)Nc1cc(C(F)(F)F)ccc1Oc1cccc(Br)c1	-17	u	-3.5	-2	-13	-1	1
O=C(NNC(=O)c1ccccc1Cl)c1ccc2c(c1)OCCO2	-58	6543	1.9	x	0	6	1
CCOC(=O)c1ccccc1NC(=O)COC(=O)CCC(=O)N1CCOCC1	-9	4647	2.4	2	3	-2	-5
Cc1ccc(N(C)S(=O)(=O)c2cccc(C(=O)N(C)Cc3cnn(-c4ccccc4)c3)c2)cc1	-20	u	4.0	x	2	1	2
CCN1CCN(C(CNS(=O)(=O)c2ccc(Br)cc2)c2cccnc2)CC1 (stereo not given)	-6	5785	-1.5	-5	0	6	6
CCN(CC)c1ccc(C=Nn2c(-c3ccccc3Br)n[nH]c2=S)cc1	x	x	-5.8	x	-4	-8	6
O=C(NNC(=O)c1ccc([N+](=O)[O-])cc1)c1ccc(F)cc1	0	5987	6.1	-1	2	10	15
COc1ccc(CN2CC(=O)N(c3ccc(Cl)cc3)C2=S)cc1OC	-13	3022	-1.4	8	-4	8	1
Cc1cc(SCC(=O)N/N=C/c2ccccc2C(=O)O)c(C)cc1Br	-10	3170	x	1	x	x	x
CCOc1ccc(NC(=O)C2CCCN2C(=O)NC2CCCCC2)cc1 (stereo not given)	-16	3610	0.6	9	4	0	-1
N#CC(=NNc1ccccc1F)C(=N)N1CCCCC1	x	x	-0.2	x	-4	2	5
COC(=O)c1scc(C#N)c1NN=C(C#N)S(=O)(=O)c1ccc(Cl)cc1	x	x	70	x	49	-5	-5
O=C(N/N=C/c1ccc(Cl)cc1Cl)c1cccc(F)c1	-149	22364*	x	9	x	x	x
O=C1NC(=O)N(c2ccc3c(c2)OCO3)C(=O)/C1=C/c1cccs1	-19	2596	x	-4	x	x	x
COc1ccc(N2C(=NC(=O)C3CCCCC3)SC3CS(=O)(=O)CC32)cc1Cl (stereo not given)	-6	5551	5.0	-2	4	8	5
O=C(COC(=O)c1ccco1)NCCNC(=O)COC(=O)c1ccco1	-16	4782	6.0	10	16	-2	-6
COC(=O)c1cc(NC(=O)c2cc3ccccc3o2)cc(C(=O)OC)c1	-14	3555	6.0	-2	-3	4	6
CS(=O)(=O)c1ccc(C(=O)OCC(=O)NC23CC4CC(CC(C4)C2)C3)cc1[N+](=O)[O-]	-36	2403	1.0	29	11	10	8
CSc1ccccc1-c1nnc(-c2ccc(Cl)c(Cl)c2)o1	-52	2394	-15	2	15	x	x
COC(=O)c1c(-c2ccc(C)cc2)csc1N	-2	4244	3.1	-10	7	x	x
CC12CCC(=O)N1C(C(=O)NCCc1ccc(S(N)(=O)=O)cc1)CS2 (stereo not given)	2	4174	3.8	-7	9	8	4
COc1ccc(NC(=S)NC(NC(C)=O)C(Cl)(Cl)Cl)c([N+](=O)[O-])c1 (stereo not given)	-19	2483	1.1	-4	1	5	4
COc1ccc(C(OC(=O)c2ccco2)C(=O)NC2CCCC2)cc1OC (stereo not given)	-27	6217	6.0	-11	-3	5	0
CC(C)CC(NC(=O)c1ccc(C#CC(C)(C)O)s1)C(=O)O (stereo not given)	-14	2222	6.0	9	-3	14	11
Cc1nn(Cc2noc(C(=O)NCc3ccccn3)n2)c(C)c1Br	-10	4307	1.1	1	3	5	5
CC(=O)C(Cc1ccccc1)NC(=O)COC(=O)c1ccc(-n2cnnn2)cc1 (stereo not given)	-16	4162	4.6	x	3	12	6
CCN(CC)C(=O)[C@H]1CC(CC(=O)NCCC2=CCCCC2)C(=O)N2CCc3c([nH]c4ccc(OC)cc34)[C@]12C (stereo not given in full)	-12	3992	-0.6	x	-1	-6	-5
Cc1c(NC(=O)/C(=C/c2cccs2)NC(=O)c2ccccc2)c(=O)n(-c2ccccc2)n1C	-1	4356	x	-2	x	x	x
CCOC(=O)c1cnc(SCC(=O)c2ccc3c(c2)OCCO3)nc1N	-13	8511	0.8	-2	6	-8	-3
COc1ccc2c(CC(=O)OCC(=O)c3ccc(F)cc3)coc2c1	-9	4778	2.6	x	10	x	x
Cc1ccc2oc(=O)cc(CN3CCN(C/C=C/c4ccccc4)CC3)c2c1	-13	x	4.3	-8	4	-4	-7
C/C(C=NNC(=O)c1ccc2nc(C)[nH]c2c1)=C\c1ccccc1	x	x	4.2	x	2	8	7
Cc1ccc(C(C)n2cc(C(=O)NCCN3CCN(C)CC3)nn2)cc1 (stereo not given)	-4	4075	3.3	-10	12	x	x
CCN1CCN(Cc2cc(Br)cc(Br)c2O)CC1	-23	3784	0.5	5	0	1	0
Cc1cc2oc3c(c(=O)c2cc1C)C(c1ccc(C(C)C)cc1)N(CCCN1CCOCC1)C3=O (stereo not given)	2	6014	2.4	-14	0	x	x
CCOc1ccc(C2C(=O)N(C3CCCCC3)CC(=O)N2CC2CCCO2)cc1OC (stereo not given)	-15	11195	3.5	x	13	-4	1
COc1ccccc1Oc1ccc(N2CC(C(=O)OCC(=O)c3ccc(F)cc3)CC2=O)cc1 (stereo not given)	-25	5847	-1.6	-15	4	12	7
C[C@@H]1CC[C@]2(C(=O)O)CC[C@]3(C)C(=CCC4[C@]56CC[C@@](O)(OC5)C(C)(C)C6CC[C@]43C)C2[C@H]1C (stereo not given in full)	-24	5133	-16	x	16	x	x
CNC(=O)c1c(NC(=O)c2ccc(S(=O)(=O)N3CC(C)OC(C)C3)cc2)sc2c1CCN(C(C)C)C2 (stereo not given)	-17	6109	1.2	8	5	3	16
O=C(CSc1ccccc1)Nc1cccc(NC(=O)c2ccco2)c1	-21	10394	0.5	4	0	4	1
CCN(CC)CCNC(=O)c1ccc(NC(=O)c2ccc(Cl)c(S(=O)(=O)N3CCCCCC3)c2)cc1	-11	4675	1.6	-1	1	19	12
CCC1=NN(C(=O)c2ccccc2Br)C(O)(c2ccc(Br)cc2)C1 (stereo not given)	-26	3019	0.4	9	-7	-4	9
COc1cc(/C=N\NC(=O)c2c(C)nc3cc(C)ccn23)ccc1O	-16	3800	x	1	x	x	x
NC(=O)CN1CCOCCN(CC(N)=O)CCOCC1	x	x	1.1	-2	6	8	1
COc1ccc(/C=N/OCC(=O)N2CC3(C)CC2CC(C)(C)C3)cc1OC (stereo not given)	-15	10581	x	-21	x	x	x
CC1CCN(S(=O)(=O)c2ccc3c(c2)c(=O)c(C(=O)NCc2ccccc2Cl)cn3C)CC1	x	x	4.5	-2	-4	7	3
(continued)
SMILES	PrP UTR inh	Bead autofluor	Sa RN4220 lethal	BJeLR lethal	Sa ugtP lethal	Mtb hypoxia rep	Mtb hypoxia rep growth
NCC(c1ccccc1)(c1ccccc1)c1ccccc1	-33	2585	2.6	5	5	-2	1
O=C(O)c1cccc(S(=O)(=O)Nc2ccccc2Cc2ccccc2)c1	-2	3138	8.4	-1	0	2	-3
NS(=O)(=O)c1ccc(NC(=O)CSc2ccccn2)cc1	1	9165	1.1	1	-3	-2	0
CC(=O)c1cnc(Nc2cccc(Cl)c2Cl)s1	-46	4964	17	-3	12	4	11
COc1cc(C2CC(=O)c3cnc(NC(=O)c4ccco4)nc3C2)cc(OC)c1OC (stereo not given)	-14	5967	1.6	-12	8	-7	-18
COc1ccc(NC(=S)N2CCC(C(=O)c3ccc(C)cc3)CC2)c(OC)c1	-20	4028	7.0	15	0	3	0
COc1cccc(C(=O)NNC(=O)c2ccc(NS(=O)(=O)c3cccs3)cc2)c1OC	-25	4825	2.2	-1	9	8	6
Cc1ccc(S(=O)(=O)N/N=C\c2ccc3c(c2)OCO3)c(C)c1	-5	5565	x	-3	x	x	x
Cc1cccc(NC(=O)CCC(=O)N/N=C/c2ccco2)c1C	-8	2245	x	-3	x	x	x
Cc1[nH]c2ccc(-c3n[nH]c(=S)n3C)cc2c1C	14	5236	8.3	0	4	9	5
CCC(OCC(O)CN1CCCCC1)c1ccccc1 (stereo not given)	-14	4895	-4.4	-2	-7	-3	-3
O=C(COc1ccccc1)Nc1nnc(S(=O)(=O)N2CCCC2)s1	-80	4799	0.4	4	1	3	8
COc1ccc(CN2C(=NC(=O)c3ccccc3)SC3CS(=O)(=O)CC32)cc1OC (stereo not given)	-15	6137	2.3	1	3	2	8
CC(C)CC(CO)N1CCN(C(=O)c2ccc(Cl)cc2)CCC1=O (stereo not given)	-32	3606	-1.9	-5	-5	-2	9
O=C(NC1CC2CCCC(C1)N2C(=O)NCc1ccccc1)C1CC1 (stereo not given)	-11	8772	3.6	6	-3	-85	-15
CC1CCCC(NC(=O)COC(=O)Cc2ccccc2)C1C (stereo not given)	-13	17041*	5.0	8	-2	9	9
COc1cc(CC2C(=O)N(C)C(=O)N(C)C2=O)ccc1OCc1ccccc1	-21	10542	2.5	6	1	10	2
CCOCCCNC(=O)Cn1cnc2c(cnn2-c2ccc(C)c(C)c2)c1=O	-11	3372	2.3	27	10	9	4
Cc1onc(-c2ccccc2Cl)c1C(=O)Nc1cnn(Cc2ccccc2)c1	9	6255	2.8	4	4	15	5
CC(Sc1ccccc1)C(=O)N1CCN(S(=O)(=O)c2ccc(Cl)cc2)CC1 (stereo not given)	-4	5801	3.4	-2	5	7	6
CN1C(=O)NC(=O)C1c1ccccc1 (stereo not given)	3	3647	1.7	x	0	7	4
CCCc1nc2ccccc2c(=O)n1NC(=O)c1c(O)c2ccccc2n(C)c1=O	-18	3098	7.9	-16	16	5	1
C=CCn1c(SCC(=O)Nc2nc(C)cs2)nnc1C(NC(=O)c1ccccc1)C(C)C (stereo not given)	-25	8447	8.1	-12	-10	12	11
NP(=O)(Nc1ccccc1)Nc1ccccc1	-15	3811	1.0	x	1	16	9

From PubChem
